Compound activity deposited in PubChem BioAssay by Broad Institute.
ID4 binder: binders of human ID4 protein. P47928. small molecule microarray, Flag-ID4 binding, fluorescence F/B. calls only. 1.2% of 31,000 active;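 active = spot signal over background at p below 0.07 in all four prints; compounds were printed on slides so no solution concentration is given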;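 also: a binder raises fluorescence above local background on the spot; about 2 pmol printed per array spot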
Target sequence (P47928 whole entry, looked up): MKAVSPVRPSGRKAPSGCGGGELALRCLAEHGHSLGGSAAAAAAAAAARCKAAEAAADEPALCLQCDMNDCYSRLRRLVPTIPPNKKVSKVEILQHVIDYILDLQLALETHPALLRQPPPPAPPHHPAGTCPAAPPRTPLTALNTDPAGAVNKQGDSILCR
Calls only; i = inactive; + = active, no number. Some of the compounds tested; count on the stated rates, not on these rows.

molecule	ID4 binder
COc1cccc(-c2ccc3c(c2)O[C@H](CN(C)C)[C@H](C)CN([C@@H](C)CO)S3(=O)=O)c1	i
Cc1nnc(SCC(=O)Nc2ccc(C)c(Cl)c2)s1	i
C[C@H](CO)N1C[C@H](C)[C@H](CN(C)C(=O)c2ccccc2)Oc2ncc(Br)cc2C1=O	i
O=C(N[C@@H]1C=C[C@@H](CC(=O)N2CCOCC2)O[C@@H]1CO)c1cccc(F)c1	i
COc1cccc(NC(=O)CCc2nc(-c3ccccc3Cl)no2)c1	i
Clc1ccc(SCc2csc(-c3ccsc3)n2)cc1	i
CNC[C@H]1OCc2ccccc2-c2ccccc2C(=O)N([C@H](C)CO)C[C@@H]1C	i
C=CCc1cccc(C)c1OCCCN1CCC(C)CC1	i
CS(=O)(=O)N(CC(=O)NC1CCCCC1)c1ccc(Cl)cc1Cl	i
CCOc1ccc(Cl)cc1S(=O)(=O)n1cnc2ccccc21	i
Cn1cnc(S(=O)(=O)N[C@H]2CC[C@@H](CC(=O)N3CCN(c4ccccc4)CC3)O[C@@H]2CO)c1	i
CCCCC/C=C\C/C=C\CCCCCCCC(=O)NCC(=O)O	+
CC(C)(C)Nc1nc(SCC(=O)Nc2ccccc2Cl)nc(N2CCOCC2)n1	i
CC(C)OCCCNc1ncnc(N)c1[N+](=O)[O-]	i
O=C(NC(Cc1ccccc1)C(=O)OCc1cnc(-c2ccccc2)o1)c1ccccc1 (centres undefined)	i
O=C(NCCOc1nc(N2CCOCC2)nc(N2CCOCC2)n1)Nc1ccc(Cl)cc1	i
COc1ccc(N(C(C)C(=O)Nc2ccc(Cl)cc2C)S(C)(=O)=O)cc1 (centres undefined)	i
COc1ccccc1S(=O)(=O)N[C@H]1C=C[C@@H](CC(=O)N2CCOCC2)O[C@H]1CO	i
C[C@H]1C[C@@H]2[C@H]([C@@H](O)C[C@@]3(C)[C@H]2CC[C@]3(O)C(=O)CO)[C@@]2(C)C=CC(=O)C=C12	i
COc1c(C)cc(S(=O)(=O)NCc2ccccn2)c(C)c1C	i
C[C@H]1CN([C@@H](C)CO)C(=O)CCCn2nncc2CO[C@H]1CN(C)CC1CCCCC1	i
O=C(NCCN1CCOCC1)[C@]1(CCS(=O)(=O)c2ccccc2)N=C(c2ccc(OCCCO)cc2)O[C@@H]1c1ccccc1	i
Cc1ccc(NC(=O)CSc2nnnn2C2CC3CCC2C3)cc1 (centres undefined)	i
CC(C)C#Cc1cnc2c(c1)C(=O)N([C@@H](C)CO)C[C@@H](C)[C@@H](CN(C)C(=O)c1cccc(F)c1)O2	i
CCCN(C)C[C@@H]1Oc2cc(/C=C/c3ccccc3)ccc2S(=O)(=O)N([C@@H](C)CO)C[C@H]1C	i
C[C@H](CO)N1C[C@H](C)[C@H](CN(C)Cc2ccccc2)Oc2cc(C#CC3CC3)ccc2S1(=O)=O	i
O=C(CSc1ncnc2scc(-c3ccc(Cl)cc3)c12)Nc1ccc2c(c1)OCCO2	i
COc1ccccc1NC(=O)CSCC#N	i
C[C@H](CO)N1C[C@H](C)[C@@H](CN(C)Cc2ccccc2F)Oc2ncc(C3=CCCCC3)cc2C1=O	i
COc1ccc(OC)c(S(=O)(=O)N(C)c2ccccc2C(=O)O)c1	i

6 consecutive records already listed, quoted:
molecule	ID4 binder
C[C@H]1CN([C@@H](C)CO)C(=O)CCCn2nncc2CO[C@H]1CN(C)CC1CCCCC1	i
O=C(NCCN1CCOCC1)[C@]1(CCS(=O)(=O)c2ccccc2)N=C(c2ccc(OCCCO)cc2)O[C@@H]1c1ccccc1	i
Cc1ccc(NC(=O)CSc2nnnn2C2CC3CCC2C3)cc1 (centres undefined)	i
CC(C)C#Cc1cnc2c(c1)C(=O)N([C@@H](C)CO)C[C@@H](C)[C@@H](CN(C)C(=O)c1cccc(F)c1)O2	i
CCCN(C)C[C@@H]1Oc2cc(/C=C/c3ccccc3)ccc2S(=O)(=O)N([C@@H](C)CO)C[C@H]1C	i
C[C@H](CO)N1C[C@H](C)[C@H](CN(C)Cc2ccccc2)Oc2cc(C#CC3CC3)ccc2S1(=O)=O	i

More records.
molecule	ID4 binder
COc1cc(C)c(S(=O)(=O)NCCc2c(C)[nH]c3ccccc23)cc1C	i
COc1ccc(C)cc1S(=O)(=O)N(C)CC(=O)Nc1cccc(SC)c1	i
COc1ccccc1CCNC(=O)c1cc(-c2ccccn2)nc2c(C)c(Cl)ccc12	i
C[C@H]1CN([C@@H](C)CO)C(=O)c2cc(NC(=O)C3CCCCC3)ccc2O[C@H]1CN(C)CC1CC1	i
COC(=O)c1cc(OC)c(OC)cc1NC(=O)COc1cc(C)c(Br)c(C)c1	i
C[C@H]1CN([C@@H](C)CO)C(=O)c2cc(C3=CCCCC3)cnc2O[C@H]1CN(C)S(=O)(=O)c1cn(C)cn1	+
CSc1cccc(NC(=O)CN(C)S(=O)(=O)c2c(C)cc(C)cc2C)c1	i
COc1ccccc1C(=O)N1CCN(c2ccc([N+](=O)[O-])c(NCc3cccnc3)c2)CC1	i
CNC[C@@H]1Oc2ncc(C#CC3CCCCC3)cc2C(=O)N([C@H](C)CO)C[C@@H]1C	i
Cc1ccc(NC(=O)CSc2nc(C)cc(-c3ccc(Cl)cc3)n2)cc1	i
COc1ccc(OC)c(NC(=O)c2ccc(N(C)S(=O)(=O)c3ccc(OC)c(OC)c3)cc2)c1	i
O=C(C[C@@H]1C=C[C@H](NC(=O)Cc2cccnc2)[C@@H](CO)O1)Nc1ccccc1	i
O=C(NCc1ccc(Cl)cc1)C1=C[C@H](c2coc3ccccc3c2=O)C[C@H](OCCCCO)O1	i
COc1ccc(C(=O)NCCNc2ccccc2[N+](=O)[O-])cc1	i
Brc1ccc2nc(NCc3ccccn3)nc(-c3ccccc3)c2c1	i
C[C@H]1CN([C@@H](C)CO)C(=O)c2cc(C#CC3CCCC3)cnc2O[C@@H]1CN(C)Cc1ccncc1	i
CCOC(=O)c1c(NC(=O)CN2C(=O)c3ccccc3S2(=O)=O)sc2c1CCCC2	i
COc1cccc(C2C(C(=O)c3cc4ccccc4o3)C(=O)C(=O)N2c2nc(C)c(C)s2)c1OC (centres undefined)	i
O=c1[nH]c2cc(Cl)ccc2c(-c2ccccc2)c1SC1=NCCS1	i
COC(=O)c1c(NC(=O)CCN2C(=O)c3ccccc3C2=O)sc(C)c1-c1ccccc1	i

The final three compounds of the section before are carried over, then new ones follow.
molecule	ID4 binder
COc1cccc(C2C(C(=O)c3cc4ccccc4o3)C(=O)C(=O)N2c2nc(C)c(C)s2)c1OC (centres undefined)	i
O=c1[nH]c2cc(Cl)ccc2c(-c2ccccc2)c1SC1=NCCS1	i
COC(=O)c1c(NC(=O)CCN2C(=O)c3ccccc3C2=O)sc(C)c1-c1ccccc1	i
COCC(=O)N1[C@H](CO)[C@H](c2ccc(C#Cc3ccccc3F)cc2)[C@@H]1C#N	i
CCCCCCN(CCCCCC)C(=O)Cc1c(-c2ccc(F)cc2)[nH]c2ccccc12	i
CC(=O)NC1C(=O)N=C(SC(C)C(=O)Nc2cccc(Cl)c2)NC1=O (centres undefined)	i
Cc1ccc(S(=O)(=O)N[C@@H]2C=C[C@@H](CC(=O)O)O[C@@H]2CO)cc1	i
CC(=O)N1CCN(c2ccc([N+](=O)[O-])c(NCc3cccnc3)c2)CC1	i
Cc1nonc1OCCNc1cc(N2CCCC2)ccc1[N+](=O)[O-]	i
CO[C@@H]1CN(C)C(=O)c2ccc(NC(=O)Cc3ccccc3)cc2OC[C@@H](C)N(C)C[C@H]1C	i
COc1ccc(-n2c(SCC(=O)NC3CCCCC3)nnc2-c2cccs2)cc1	i
Cc1nnc(SCCN2C(=O)c3ccccc3C2=O)[nH]c1=O	i
COC(=O)c1ccccc1NC(=O)CSc1nnc(-c2cc3cccc(OC)c3o2)n1C	i
COc1ccc(NC(=O)CSc2nnc(C)n2-c2ccc(C)c(C)c2)cc1	i
Fc1ccccc1-c1nnc(SCc2nc3ccccc3[nH]2)n1-c1ccccc1	i
CCCN(C)C[C@H]1Oc2ncc(C#CCN(C)C)cc2C(=O)N([C@H](C)CO)C[C@H]1C	i
NCCCCCNC(=O)[C@@H]1C[C@@H]2C(=O)NCC(=O)N2[C@@H]1c1cccc(OCCO)c1	+
O=C(N[C@@H]1CC[C@@H](CC(=O)N2CCOCC2)O[C@H]1CO)c1ccccn1	i
COc1cccc(CNC(=O)C[C@H]2CC[C@@H](NC(=O)C3CCC3)[C@H](CO)O2)c1	i
Cc1noc(C)c1NC(=O)N(C)C[C@H]1Oc2cc(C#CCN(C)C)ccc2S(=O)(=O)N([C@@H](C)CO)C[C@H]1C	i
C[C@@H]1CN([C@@H](C)CO)C(=O)c2cc(C#CCc3ccccc3)cnc2O[C@@H]1CN(C)C(=O)C1CC1	i
CCCC#Cc1ccc2c(c1)O[C@@H](CN(C)CC1CCOCC1)[C@@H](C)CN([C@H](C)CO)S2(=O)=O	i
C/C=C/c1ccc2c(c1)O[C@H](CN(C)Cc1cccnc1)[C@H](C)CN([C@@H](C)CO)S2(=O)=O	i
O=C(CN1C(=O)c2ccccc2S1(=O)=O)NCC1CCCO1 (centres undefined)	i
CCCC(=O)Nc1nc2c(ncn2C2O[C@H]3COP(=O)(O)O[C@@H]3[C@@H]2OC(=O)CCC)c(=O)[nH]1 (some centres undefined)	i
C[C@@H](NC(=O)C[C@@H]1C=C[C@H](NC(=O)C2CCC2)[C@@H](CO)O1)c1ccccc1	i
COc1cccc(C2C(C(=O)c3cccs3)C(=O)C(=O)N2CCN2CCOCC2)c1 (centres undefined)	i
COc1ccc(NC(=O)CN2CCC(C(N)=O)(N3CCCCC3)CC2)c(OC)c1	i
O=[N+]([O-])c1ccc(CSc2nnc(-c3cnccn3)n2-c2ccccc2)cc1	i
COc1ccc(N=C2SCC(c3ccc(C)cc3)=NN2CCO)cc1	i
Cc1ccc2[nH]c(=O)c(-c3noc(C(C)(C)C)n3)cc2c1	i
Cc1cc(Br)ccc1NC(=O)Cn1ccc([N+](=O)[O-])n1	i
CC1(C)CC(=O)C=C(NCC2CCN(C(=S)Nc3ccccc3)CC2)C1	i
CCCC#Cc1cnc2c(c1)C(=O)N([C@H](C)CO)C[C@H](C)[C@H](CN(C)S(C)(=O)=O)O2	i
COC(=O)c1cc(NC(=O)COc2c(C)cc(Cl)cc2Cl)cc(C(=O)OC)c1	i
COc1cc(Cl)c(C)cc1NC(=O)CN(C)S(=O)(=O)c1ccccc1	i
CC(C)C#Cc1ccc2c(c1)O[C@H](CN(C)Cc1ccccc1)[C@@H](C)CN([C@@H](C)CO)S2(=O)=O	i
COc1ccc(NC(=O)C(C)N(c2ccc(C)c(C)c2)S(C)(=O)=O)cc1 (centres undefined)	i
C[C@@H]1CN([C@H](C)CO)S(=O)(=O)c2ccc(-c3ccncc3)cc2O[C@H]1CN(C)C(=O)CN(C)C	i
COc1ccccc1-c1cnc2c(c1)C(=O)N([C@@H](C)CO)C[C@@H](C)[C@@H](CN(C)CC1CCOCC1)O2	i
O=C(NCCCN1CCCC1=O)c1cc(-c2ccncc2)nc2ccc(Br)cc12	i
COc1ccccc1S(=O)(=O)N[C@H]1C=C[C@H](CC(=O)N2CCOCC2)O[C@H]1CO	i
c1ccc(CCn2c3ccccc3c3nnc(SCc4ccc5nonc5c4)nc32)cc1	i
Cc1cc(Cl)c(S(=O)(=O)Nc2ccc(I)cc2)cc1OCC(N)=O	i
COc1ccccc1/C=C/C(=O)N1CCCC(c2ccccc2)C1 (centres undefined)	i
C[C@@H]1CN([C@@H](C)CO)S(=O)(=O)c2ccc(Br)cc2O[C@H]1CN(C)CC1CCCC1	i
COc1ccccc1N(CC(=O)Nc1ccc(I)cc1C)S(C)(=O)=O	i
CC1CCCC[C@H]2C(=O)C=C[C@H](O)[C@@H]2CC(=O)O1 (some centres undefined)	i
COc1ccccc1-c1ccc2c(c1)O[C@H](CN(C)C(=O)c1cccnc1)[C@@H](C)CN([C@H](C)CO)S2(=O)=O	i
C[C@H]1CN([C@@H](C)CO)C(=O)c2cc(-c3ccccc3F)cnc2O[C@@H]1CN(C)Cc1cccc(F)c1	i
O=C(O)CCNS(=O)(=O)c1cccc(Cl)c1	i
O=c1[nH]c2cc(Cl)ccc2c(O)c1-c1cccc(Oc2ccccc2)c1	i
C[C@H]1CN([C@@H](C)CO)C(=O)c2cc(-c3cccc(F)c3)cnc2O[C@H]1CN(C)Cc1ccccc1	i

Following part:
molecule	ID4 binder
CCCN(C)C[C@H]1OCc2cn(nn2)CCCC(=O)N([C@H](C)CO)C[C@H]1C	+
Cc1cc(C2(O)CSc3nc4cc(C(F)(F)F)ccc4n32)ccc1Cl (centres undefined)	i
CN(C)C(=O)C[C@@H]1CC[C@@H](NC(=O)Nc2cccc(F)c2)[C@@H](CO)O1	i
CCNC(=O)N1c2ccc(CC)cc2C(C)=CC1(C)C	i
CCOC(=O)C1=C(COCCN)NC(C)=C(C(=O)OC)C1c1ccccc1Cl (centres undefined)	i
C[C@H]1CN([C@@H](C)CO)S(=O)(=O)c2ccc(C#Cc3ccncc3)cc2O[C@@H]1CN(C)S(=O)(=O)c1ccc(F)cc1	i
C[C@@H]1CN([C@@H](C)CO)C(=O)c2cc(C#CC3CCCCC3)cnc2O[C@H]1CN(C)Cc1ccncc1	i
COc1ccccc1NC(=O)CSc1nc2ccc(NC(=O)c3ccccc3OC)cc2s1	i
Nc1nn(S(=O)(=O)c2cccc3nsnc23)cc1-c1ccc(Br)cc1	i
C/C=C/c1ccc2c(c1)O[C@@H](CN(C)C(=O)COC)[C@H](C)CN([C@@H](C)CO)S2(=O)=O	i
C=C(C)[C@@]12O[C@@H]1[C@@]1(C)C(=CC2=O)CC[C@@H](O)[C@@H]1C	i
COc1ccc(N(C(=O)c2cccnc2)S(=O)(=O)c2ccc3c(c2)n(C)c(=O)n3C)cc1	i
C[C@@H]1CN([C@H](C)CO)C(=O)CCCn2nncc2CO[C@H]1CN(C)Cc1ccccc1C(F)(F)F	i
